Calb FLC – C. albicans growth modulation with fluconazole; 0.57% of 300,000 active; C. albicans CaCi-2 (fluconazole-resistant clinical isolate) + fluconazole, Alamar Blue growth, 48 h; growth inhibition, % (no concentration beside the values);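 active = most replicates above 75%; inconclusive = exactly half above 75%; inactive = most below 75%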;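 also: all wells also contain fluconazole at 8 µg/ml as a sub-toxic cotreatment; 0% = median of DMSO wells and 100% = median of geldanamycin control wells; wells of about 8 µL received 7.5 nL stock; the first replicate is given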
Beta2AR agonist – agonists of human beta-2 adrenergic receptor inducing internalization; P07550; Am2.2-beta2AR cells, FAP receptor internalization, flow cytometry; reference of the scale not given here; response, % (no concentration beside the values); 0.43% of 340,000 active; AID 504454;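 active = response above a set limit, near 3 SD of response in nonfluorescent compounds, cut at about 42% in these data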;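 also: stock transfer was 100 nL into about 11 µL; a reference agonist was the positive control; negative values mostly stem from fluorescent compounds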
HNF4A DNA FP – change in binding of human HNF4 alpha to DNA; 0.3% of 360,000 active; activity change, % at 10 µM; HNF4a-FITC DNA binding, fluorescence polarization, 1 h; in the data active = activity change above about 30%, passing the limit was not always enough;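 also: controls were the assay level and a saturating level of protein; the project sought stronger binding though the title names inhibitors; some compounds called inactive have numbers as strong as hits; positive values seem to mean higher polarization but the record does not say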
RanGTP-Impb inh – disruptors of Ran-importin-beta complex formation – biochemical, FRET, CFP-Ran, YFP-importin-beta, homogeneous, primary screen; inhibition, % (concentration not given with the values); AID 2216; 1.1% of 300,000 active; cell-free CFP-Ran/YFP-importin-beta FRET ratio;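 active = most replicates above 15%; inconclusive = exactly half above 15%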;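 also: 0% = DMSO wells and 100% = Ran loaded with GDP instead of GTP; wells of about 40 µL received 100 nL stock; the first replicate is given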
ALR H2O2 inh – human ALR oxidase inhibition via reduced H2O2. purified ALR, DTT oxidation, H2O2 HRP-luminol luminescence. 3.8% of 290,000 active. P55789. inhibition, % (concentration not given with the values);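 active = mean and each replicate at 75% or more; inconclusive = only one of the two met; inactive = neither met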;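 also: stock transfer was 7.5 nL into about 7.5 µL; 0% = neutral wells and 100% = wells with inactivated enzyme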
Vif TR-FRET – inhibitors of Vif binding to APOBEC3G peptide, primary screen, biochemical, TR-FRET, GST-Vif 1-94, biotin-A3G peptide, dose response retest (AID 1117319). TR-FRET GST-Vif / biotin-A3G peptide binding; higher % means a stronger effect; test concentration not given here; strong numbers were not always called active. one-dose inhibition, %; IC50 in µM for titrated hits. 0.57% of 260,000 active;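 active = above the screen mean plus three standard deviations and confirmed in dose response; inconclusive = results disagree or hit not tested in dose response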;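 also: Vif residues 1-94 fused to GST binding biotinylated APOBEC3G peptide 110-148; 0% = full assay without inhibitor and 100% = GST in place of GST-Vif; retest series ran down from 100 µM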
LANA-H2B inh – blocks KSHV LANA binding to histone H2A/H2B; AID 2629; Q9QR71; inhibition, % (test concentration not listed); cell-free LANA-H2A/H2B peptide, fluorescence polarization; 0.6% of 320,000 active; in the data active = inhibition mostly above about 10%, no sharp cut-off; inactive = mostly below about 6.7%;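 also: stock transfer was 7.5 nL into about 10 µL; 0% = median of vehicle wells and 100% = median of positive control wells; one replicate is shown; the record names a cut of 25% in any replicate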
Target sequence (Q9QR71 whole entry, looked up): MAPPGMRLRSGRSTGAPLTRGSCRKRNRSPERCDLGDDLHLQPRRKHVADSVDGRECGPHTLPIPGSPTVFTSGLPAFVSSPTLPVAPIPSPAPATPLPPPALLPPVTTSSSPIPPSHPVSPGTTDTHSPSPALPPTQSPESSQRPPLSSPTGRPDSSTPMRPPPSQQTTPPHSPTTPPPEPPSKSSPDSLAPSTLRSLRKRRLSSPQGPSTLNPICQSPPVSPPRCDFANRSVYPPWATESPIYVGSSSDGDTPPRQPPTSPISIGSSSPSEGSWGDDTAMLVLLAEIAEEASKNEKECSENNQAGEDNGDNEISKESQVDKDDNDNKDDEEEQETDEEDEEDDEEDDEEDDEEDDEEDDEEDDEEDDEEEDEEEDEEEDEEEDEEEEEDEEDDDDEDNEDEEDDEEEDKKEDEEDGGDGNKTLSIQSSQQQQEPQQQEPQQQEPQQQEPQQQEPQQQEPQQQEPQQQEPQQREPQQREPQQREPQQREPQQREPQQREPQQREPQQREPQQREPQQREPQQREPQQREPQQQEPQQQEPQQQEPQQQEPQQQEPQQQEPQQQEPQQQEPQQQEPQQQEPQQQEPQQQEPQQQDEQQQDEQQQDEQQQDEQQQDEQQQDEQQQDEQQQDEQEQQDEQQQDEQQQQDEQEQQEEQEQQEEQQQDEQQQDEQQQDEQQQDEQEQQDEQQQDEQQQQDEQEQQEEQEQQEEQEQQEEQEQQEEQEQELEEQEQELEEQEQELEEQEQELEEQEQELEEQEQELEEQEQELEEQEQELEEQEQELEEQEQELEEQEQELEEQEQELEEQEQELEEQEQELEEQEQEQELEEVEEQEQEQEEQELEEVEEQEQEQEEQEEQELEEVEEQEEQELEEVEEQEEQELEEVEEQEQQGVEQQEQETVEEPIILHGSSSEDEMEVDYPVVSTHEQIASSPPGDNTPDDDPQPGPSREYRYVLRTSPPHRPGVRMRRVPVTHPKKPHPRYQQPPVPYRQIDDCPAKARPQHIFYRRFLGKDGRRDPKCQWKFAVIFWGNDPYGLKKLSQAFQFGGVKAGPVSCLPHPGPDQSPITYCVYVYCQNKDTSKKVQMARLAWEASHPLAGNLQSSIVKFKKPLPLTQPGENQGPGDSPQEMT
The depositor's hits bear a star; ? = inconclusive; / = no result given; & = joins results of further samples.

SMILES	Calb FLC	Beta2AR agonist	HNF4A DNA FP	RanGTP-Impb inh	ALR H2O2 inh	Vif TR-FRET	LANA-H2B inh
C/C(=N\NC(=O)C1CC1)c1cccc(NC(=O)c2cccc(Cl)c2)c1	-57	/	/	/	21	29%	6.5
CN(CC(=O)Nc1cccc(F)c1)C(=O)CSc1ccc(Br)cc1	2	1	-0.4	3.7	12	-2%	0.9
CN1CCN(c2ccccc2NC(=O)c2ccc(-c3ccc(Br)cc3)o2)CC1	-3	11	3.4	5.2	0	-9%	-1.9
Cn1c(N)c(C(=O)COC(=O)Cn2cc(C(F)(F)F)ccc2=O)c(=O)n(C)c1=O	11	1	-2.9	0.6	1	7%	6.9
Cc1[nH]c(C(=O)O)c(C)c1C(=O)OC(C)C	-3	-9	0.2	0.4	-1	0%	-3.0
O=C(Cn1cc(SCc2ccccc2Cl)c2ccccc21)N1CCOCC1	14	4	-1.4	3.9	?	/	-0.9
O=C(NCc1ccc(F)c(F)c1)C1CCC(=O)N(CCc2ccccc2)C1 (centres undefined)	-1	-3	5.7	-0.3	/	/	/
COc1ccc(C(=O)CCc2nc3ccccc3s2)cc1	45	3	2.9	1.6	-7	/	0.0
O=C(COC(=O)/C=C/c1cccc(C(F)(F)F)c1)NCc1ccco1	0	-3	2.8	-1.7	20	3%	-5.9
Cc1cc(N=CC2=C(O)CCCC2=O)no1	-8	-18	-2.0	0.5	8	27%	-1.4
CN(C)CC(O)COc1cccc(OCC(O)CN(C)C)c1 (centres undefined)	-5	-4	4.3	-1.6	-1	-4%	-2.3
Cc1ccc(-c2ccc(S(=O)(=O)N3CC(C)OC(C)C3)cc2)cc1 (centres undefined)	-3	1	25	2.0	-1	/	2.2

5 of the entries above in order of their number in RanGTP-Impb inh, falling.
Structure	Beta2AR agonist	HNF4A DNA FP	RanGTP-Impb inh	ALR H2O2 inh	Vif TR-FRET	LANA-H2B inh
O=C(Cn1cc(SCc2ccccc2Cl)c2ccccc21)N1CCOCC1	4	-1.4	3.9	?	/	-0.9
CN(CC(=O)Nc1cccc(F)c1)C(=O)CSc1ccc(Br)cc1	1	-0.4	3.7	12	-2%	0.9
COc1ccc(C(=O)CCc2nc3ccccc3s2)cc1	3	2.9	1.6	-7	/	0.0
Cn1c(N)c(C(=O)COC(=O)Cn2cc(C(F)(F)F)ccc2=O)c(=O)n(C)c1=O	1	-2.9	0.6	1	7%	6.9
Cc1cc(N=CC2=C(O)CCCC2=O)no1	-18	-2.0	0.5	8	27%	-1.4

The list continues:
SMILES	Calb FLC	Beta2AR agonist	HNF4A DNA FP	RanGTP-Impb inh	ALR H2O2 inh	Vif TR-FRET	LANA-H2B inh
O=C(c1ccc(F)cc1)N1CCN2C(=O)c3ccccc3C12c1ccccc1 (centres undefined)	-2	1	-3.4	2.3	-10	4%	0.7
Cc1onc(-c2c(F)cccc2Cl)c1C(=O)OCC(=O)NCc1ccccc1	/	3	5.2	/	-1	4%	/
O=C(CC(Sc1ccccc1)c1cccs1)c1ccco1 (centres undefined)	0	1	2.6	8.2	/	4%	1.5
COc1cc(NC(=S)NC(=O)c2cccs2)ccc1NC(=O)C(C)C	6	-11	2.2	3.9	5	/	37*
CC(O)CNc1cc(N)c([N+](=O)[O-])cc1[N+](=O)[O-] (centres undefined)	-3	-1	-1.7	-2.1	-43	20%	1.7
COC(=O)c1c(NC(=O)c2ccoc2C)sc2c1CCC2	-11	-4	-3.5	2.0	/	4%	6.0
CCCCC(NC(=O)Cc1c(C)c2cc3c(C)c(C)oc3c(C)c2oc1=O)C(=O)O (centres undefined)	0	17	0.9	2.3	97*	11%	3.5
O=C(Nc1ccccc1)c1ccc(CSc2ccccn2)cc1	-4	-6	0.1	-1.3	42	-9%	0.0
Cc1ccc(C2C(C#N)=C(N)Oc3n[nH]c(-c4cccnc4)c32)o1 (centres undefined)	-13	7	1.2	-1.9	7	12%	2.6
C=C(C)c1cccc(C(C)(C)NC(=O)Nc2ccc3[nH]c(=O)[nH]c3c2)c1	-12	11	1.5	-1.9	-4	-1%	1.3
Cc1cc(NC(=O)NN2CCOCC2)nn1-c1c(Cl)cccc1Cl	-2	4	-7.5	-1.6	6	-1%	-4.4
CC(C)(C)CC(C)(C)NC(=O)CSCC(=O)Nc1ccc2ccccc2c1	19	5	0.3	-0.1	99*	/	3.1
Cc1ccc(S(=O)(=O)N(C)C)cc1NC(=O)COC(=O)C1CC1	0	-5	2.4	2.2	/	3%	1.1
CCOC(=O)C1=C(CN2CCCCCC2)NC(=O)NC1c1ccc2c(c1)OCO2 (centres undefined)	2	-8	-4.3	-6.1	-10	/	-1.2
CC(=O)c1cccc(NC(=O)NCc2cccs2)c1	-1	12	-0.5	3.6	-6	1%	-2.9
CCN(CC)Cc1c(O)ccc2c(=O)c(Oc3ccccc3OC)c(C)oc12	5	-9	-2.0	4.3	-1	26%	6.8
O=C(NCC(=O)N(Cc1ccco1)C(C(=O)NC1CCCC1)c1cccnc1)c1cccs1 (centres undefined)	5	-4	-1.0	-0.2	0	-2%	-11
O=C(O)COc1ccccc1/C=N/NC(=O)c1cc2ccccc2cc1O	-9	-3	-1.5	?	6	4%	0.2
CCC(C)(C)NC(=O)/C=C/c1ccc(OC)c(S(=O)(=O)N2CCOCC2)c1	-9	-7	0.1	4.5	1	/	6.4
Cc1c2cccn2cc[n+]1C	-2	-1	-1.8	-1.4	-10	-3%	-4.1
COc1ccc(CCn2c(=N)c(C(=O)NC3CCCC3)cc3c(=O)n4ccccc4nc32)cc1OC	-4	11	24	3.3	-1	1%	-1.7
CCCCOc1ccc(-c2nc(/C=N/c3nccs3)c(O)o2)cc1	-1	3	2.1	3.9	4	/	-0.5
O=C(Nc1nnc(S(=O)(=O)N2CCCCCC2)s1)c1ccccc1Br	-8	3	-6.0	2.3	/	/	-0.4
COC(=O)[C@@H](NC(=O)NCc1ccco1)C(C)C	-13	-8	-1.4	3.6	-1	-1%	11

Sorted by length of the SMILES (largest number first): part of the list above.
SMILES	Calb FLC	Beta2AR agonist	HNF4A DNA FP	RanGTP-Impb inh	ALR H2O2 inh	Vif TR-FRET	LANA-H2B inh
C=C(C)c1cccc(C(C)(C)NC(=O)Nc2ccc3[nH]c(=O)[nH]c3c2)c1	-12	11	1.5	-1.9	-4	-1%	1.3
O=C(NCc1ccc(F)c(F)c1)C1CCC(=O)N(CCc2ccccc2)C1 (centres undefined)	-1	-3	5.7	-0.3	/	/	/
Cc1[nH]c(C(=O)O)c(C)c1C(=O)OC(C)C	-3	-9	0.2	0.4	-1	0%	-3.0
Cc1c2cccn2cc[n+]1C	-2	-1	-1.8	-1.4	-10	-3%	-4.1

Next part.
SMILES	Calb FLC	Beta2AR agonist	HNF4A DNA FP	RanGTP-Impb inh	ALR H2O2 inh	Vif TR-FRET	LANA-H2B inh
CCOC(=O)c1[nH]ncc1CN1CCCC(C(=O)c2cccc(OC(C)C)c2)C1 (centres undefined)	3	-9	-0.8	-0.1	-18	/	0.9
O=C(COC(=O)c1ccccn1)Nc1ccccc1OC(F)F	-14	1	-3.4	1.5	-1	-3%	-3.1
Cc1cc(C)cc(OCC(=O)OCC(=O)NCc2ccco2)c1	-3	14	-2.2	-1.4	3	-4%	-1.7
CSCC[C@H](NC(=O)CC(C)(C)C)c1nc2ccccc2[nH]1	7	32	1.1	0.5	-9	2%	1.5
CCOC(=O)c1c(C)oc2c(CN3CCN(C)CC3)c(Br)c(OC)c(O)c12	-13	-4	1.6	/	30	10%&0%	-1.1
O=S(=O)(Nc1ccc(Br)cc1)c1cccc2nonc12	23	7	4.1	0.5	11	/	5.2
N#C/C(=C(/O)c1cccs1)c1nnc2n1CCCCC2	-8	2	-1.4	6.7	-1	0%	-0.1
O=C1CCC(C(=O)N(Cc2ccco2)C2(C(=O)NC3CCCC3)CCCCC2)N1 (centres undefined)	-5	0	2.9	2.0	/	5%	1.0
Cc1[nH]c(=O)[nH]c(=O)c1NC(=O)c1ccc(OC(C)C)cc1	-7	1	-2.7	3.5	-7	4%	0.1
O=C(Cn1cnc2c(nnn2Cc2ccc(F)cc2)c1=O)NCc1ccccc1	8	-8	-1.9	0.7	-6	-7%	0.4
COc1ccc(NC(=O)c2cc3cc(OC)ccc3oc2=N)cc1	22	6	4.4	0.2	4	-5%	-1.2
O=C(NCC1CCCO1)c1ccc([N+](=O)[O-])o1 (centres undefined)	-6	5	-1.9	0.7	-52	/	1.6
O=C(OCC(=O)N1CCCC1)c1ccccc1O	0	-2	-2.4	-0.9	/	/	2.8
CCc1nnc(N/N=C/c2cccs2)n1N	-12	5	-0.6	1.7	35	0%	0.6
O=C1S/C(=C\c2ccc(N3CCOCC3)o2)C(=O)N1Cc1c(F)cccc1Cl	11	-244	138	-17	-7	30%	1.0
COc1ccc(NN=Nc2nc3c([nH]2)c(=O)n(C)c(=O)n3C)cc1	-18	1	-0.9	0.4	18	?	-0.9
Cc1noc(NS(=O)(=O)c2ccc(NC(=O)CSc3n[nH]c(-c4ccccc4)n3)cc2)c1C	4	6	2.1	-4.9	12	14%	2.2
COc1ccc(Nc2nc(-c3ccc(OC)cc3)cs2)cc1	-11	2	3.0	-0.4	7	?	11
O=C(CCc1c[nH]c2ccccc12)NCC1CCCO1 (centres undefined)	23	0	1.2	0.3	2	?	-1.0
O=C(CSc1nc(-c2ccccc2)cc(C(F)(F)F)n1)NCCN1CCOCC1	3	-29	4.6	0.0	1	1%	-3.3
COCCCNC(=O)CSc1nc2ccccc2c(=O)n1CCCN1CCCCC1	-7	5	-0.4	0.2	/	10%	2.6
O=C1CC(=O)Nc2cc(S(=O)(=O)NCc3cccs3)ccc2N1	4	-8	-1.8	2.7	1	/	-0.7
COc1ccc(Cl)cc1NC(=O)CCS(=O)(=O)c1ccc(Br)cc1	0	-9	-45	?	-18	8.1µM*	3.6
C/C(=N\NC(=O)c1ccc(Cl)cc1)c1ccc2[nH]ccc2c1	-13	-2	0.7	2.8	/	2%	-0.6
Clc1ccc(-c2cc(CSc3cccc(Cl)c3)on2)cc1	0	-8	-3.6	-5.7	/	0%	0.0
CCN(C(C)=O)N(CC)c1nc(Cl)nc(NC(C)C)n1	-1	16	2.3	-1.5	/	/	-3.3
Cc1ccc(S(=O)(=O)N2CCN(CC3CC4C=CC3C4)CC2)cc1 (centres undefined)	-11	5	5.5	?	/	/	1.6
O=C(NCc1ccccc1)C(c1ccco1)N(C(=O)c1csnn1)c1ccccc1F (centres undefined)	-13	-4	-2.4	-0.8	-3	16%	-2.8
CC(C)=CCN1CCN(Cc2cc(CC(C)C)n[nH]2)CC1CCO (centres undefined)	?	-3	-0.9	-3.2	-6	/	0.6
COc1ccccc1N1CCN(S(=O)(=O)c2ccc3c4c(cccc24)C(=O)N3)CC1	26	7	2.7	0.0	-18	1%&0%	3.3
COc1ccc(CNC(=O)Cn2ccc(N)nc2=O)cc1	/	-4	-0.5	/	0	/	-1.9
Cc1ccc(C(=O)N2CCCCCC2)cc1Br	-16	1	-0.7	?	-14	-1%	-0.9
O=S(=O)(NC1CCCCC1)c1ccc(Br)s1	-3	-3	9.2	2.8	-2	-3%	2.4
CC(C)(C)c1cc(C(C)(C)C)cc(S(=O)(=O)CCc2ccccn2)c1	-27	-12	-8.5	?	-2	76%	-0.5
O=C(CSc1nc2ccccc2o1)NCc1ccco1	3	-3	0.1	0.2	5	-4%	-11
NC(=O)c1cc(N=Nc2c(N)[nH]n(-c3c(Cl)cc(Cl)cc3Cl)c2=O)ccc1Cl	-2	2	-2.4	0.6	0	12%	-2.5
Cn1c(=O)c2c(nc(N3CCOCC3)n2CCc2ccccc2)n(C)c1=O	15	5	1.4	2.7	-2	/	-4.0
CC1CC(C)CN(C(=O)c2ccc(NS(=O)(=O)c3ccc4[nH]c(=O)[nH]c4c3)cc2)C1 (centres undefined)	3	3	2.1	2.2	0	0%	1.3

Screening results as filed in PubChem BioAssay.
